Compound activity from PubChem BioAssay.
2A firefly – lowers the firefly signal of an FMDV 2A StopGo reporter | HEK cells with a luciferase reporter of 2A StopGo recoding | Potency, µM (doses to about 57.5 µM), for the others: at the top dose signal change, negative = less light | hit rate 0.23% among 120,000; active = well fitted falling curve with a large enough effect; inconclusive = small, poorly fitted or top-dose-only effect; inactive = no such curve, though single readings can be large or run the other way; note: nearly all actives have a fitted effect of over 60% in size; overnight with compound
2A Renilla – FMDV 2A StopGo reporter, Renilla signal; HEK cells with a luciferase reporter of 2A StopGo recoding; Potency, µM (top dose mostly 57.5 µM), inactives show top-dose signal change, negative = less light; hit rate 0.32% among 120,000; AID 1745857; active means well fitted falling curve with a large enough effect; inconclusive means small, poorly fitted or top-dose-only effect; inactive means no such curve, though single readings can be large or run the other way; note: nearly all actives have a fitted effect of over 55% in size; overnight with compound
* = called active by the depositor; ? = inconclusive; [ ] = remark or other dose. % is set by controls: 0 for no effect and ±100 for the full control effect; potency is the fitted concentration of half-maximal effect. A portion of the library. The share of hits here may be higher or lower than overall.

smiles | 2A firefly | 2A Renilla
COc1ccc(NC(=O)CN(Cc2ccc3c(c2)OCO3)C2CCCC2)cc1 | 14% | 78%[activator]
C=CCNC(=O)COC(=O)c1cc(-c2ccc(C)o2)nc2ccccc12 | 102%[activator] | 0%
O=C(CSc1nc2c(cnn2-c2ccc(F)cc2)c(=O)[nH]1)Nc1ccc(Br)cc1 | -27% | -18%
Cc1cc(C(=O)NCc2ccc(N(C)C)nc2)on1 | -8% | -4%
CC(C)NC(=O)C1CCC(Cn2c(=O)c3sccc3n(Cc3ccc(F)cc3)c2=O)CC1 (stereo unspecified) | -5% | -9%
Cc1cc(C)n(-c2cc(NC3CCCCCC3)ncn2)n1 | 23% | 13%
CC(=O)c1ccc(N2CCN(C(=O)C3CCN(S(=O)(=O)c4ccc(Br)s4)CC3)CC2)cc1 | 17% | 10%
Cc1ccc(C(=O)/C(=C\c2ccc(Cl)cc2)c2nc3ccccc3o2)cc1 | 0% | 0%
COC(=O)c1ccccc1C(=O)O | -1% | 1%
CN(Cc1ccc2ccccc2c1)C(=O)Cc1n[nH]c(=O)c2ccccc12 | -20% | ?
Cc1cccc(C(=O)NNC(=S)NC(=O)/C=C/c2cccs2)c1 | -3% | -21%
FC(F)(F)c1cc(-c2ccco2)nc2c(-c3ccc(Cl)cc3)cnn12 | -5% | -3%
CCNC(=O)COc1ncnc2ccc(Br)cc12 | 18% | 1%
O=C(NC1Cc2ccccc2C1)c1ccccc1 | 76%[activator] | 13%
CCCCN(C)S(=O)(=O)c1ccc(C(=O)Nc2sc3c(c2C(=O)OCC)CCN(C(C)C)C3)cc1 | ? | 5%
COc1cccc(CNC(=O)CCC(=O)N2CC(C)Sc3ccccc32)c1 (stereo unspecified) | -13% | -3%
COc1cc(/C=C/C(=O)O)cc(Br)c1OC | 12% | 13%
CCc1ccccc1NC(=O)c1cc(C)nc2ccccc12 | 19% | 4%
CC(C)C(=O)Nc1ccc(N(C)C)cc1 | 69%[activator] | 1%
O=C(COc1ccc(Cl)cc1)Nc1nnc(S(=O)(=O)N2CCCCCC2)s1 | -8% | -10%

The listing continues.
smiles | 2A firefly | 2A Renilla
CC(CNC(=O)c1ccc2c(c1)nc1n2CCCC1)c1ccccc1 (stereo unspecified) | -23% | -6%
CCC(Sc1ncc(S(=O)(=O)c2ccc(C)cc2)c(=O)[nH]1)C(=O)Nc1cc(C)ccc1C (stereo unspecified) | 8% | 9%
Cc1ccc(C)c(N2CCN(C(=O)CCCn3ncn4c(cc5occc54)c3=O)CC2)c1 | -22% | -20%
O=C(CSc1nnc2ccc(-c3ccccn3)nn12)N1CCN(c2ccccc2)CC1 | ? | ?
COc1ccc2c(c1)cc(C(=O)Nc1ccccc1C)n2C | 0% | 0%
O=C(CCCn1c(=O)oc2ccccc21)Nc1ccc(-c2nnc3n2CCCCC3)cc1 | 2% | -1%
CCCNC(=O)c1cc(C)nc2ccccc12 | 9% | 13%
COc1ccccc1C1CC(=O)NC(C)=C1C(=O)OC1CCCCCC1 (stereo unspecified) | -5% | 6%
CC(=O)Nc1nonc1-c1nnc(SCc2cccc(Br)c2)n1C | 0% | 13%
CNC(=O)NC(=O)C(C)Sc1ccc2ccccc2n1 (stereo unspecified) | 16% | -5%
COc1ccc(CNc2nc3c(-c4ccc(C)cc4)nnn3c3ccccc23)cc1 | 417%[activator] | 1%
COc1cc(NS(=O)(=O)c2cc(-c3cnc(C)o3)ccc2C)cc(OC)c1 | ? | 99%[activator]
Cc1nc2cc(C(=O)NCCC3=CCCCC3)ccc2n1-c1ccc(Br)cc1 | -1% | 2%
Cc1cc(C(=O)NC(C)CCCC(C)C)c2ccccc2n1 (stereo unspecified) | -7% | -6%
CCOC(=O)c1c(C)[nH]c(C(=O)COc2ccc3c(C)cc(=O)oc3c2)c1C | 14% | -7%
COc1ccccc1C(=O)N1CCN(c2oc(-c3cccc(C)c3)nc2C#N)CC1 | 2% | 0%
N#Cc1ccc(CSc2nccc(C(F)(F)F)n2)cc1 | 1% | -5%
COc1ccccc1NC(=O)c1sc2nc(C)c(C(=O)Nc3ccc(C)cc3C)c(-c3ccc(C)o3)c2c1N | -21% | -10%
Cc1ccc2nc(Nc3nc(C(C)C)cc(=O)[nH]3)nc(C)c2c1 | 93%[activator] | 4%
CCC(C)NC(=O)Cc1ccc2c(c1)CCCC2 (stereo unspecified) | 17% | 3%

Later entries
smiles | 2A firefly | 2A Renilla
CCOc1ccc(-c2cc(-c3nc(-c4cc(OC)c(OC)c(OC)c4)no3)[nH]n2)cc1Cl | 9% | -11%
Cc1ccc(NCc2cccn2-c2nnc(N3CCC(C(=O)NC(C)C)CC3)s2)cc1 | 25% | 13%
COc1cccc(OC(=O)c2ccc(Cl)cc2Cl)c1 | 0% | 9%
COc1ccc(/C=C/c2ccc3cc(C)ccc3n2)cc1O | 208%[activator] | 32%
CCOc1ccc(NC(=O)CC2Sc3ccccc3NC2=O)cc1 (stereo unspecified) | 24% | 6%
O=C(CSc1nnc(Cc2cc(=O)[nH]c(=O)[nH]2)n1-c1ccc(F)cc1)c1ccc(Cl)cc1 | -10% | -11%
O=C(Nc1ccc(Oc2ccccc2)cc1)c1ccc[n+]([O-])c1 | 12% | -24%
O=C(O)CCS(=O)(=O)C(Cl)Cl | -8% | -5%
CC12CCC3C(CCC4C/C(=N\O)CCC43C)C1CCC2O (stereo unspecified) | 9% | -4%
Cc1ccc2c(c1)c1c3n2CCNC3CCC1 (stereo unspecified) | -13% | -17%
OCCN(CC#CCC(O)(c1ccccc1)c1ccccc1)Cc1ccccc1 | -28% | ?
COc1ccc(N(C)S(=O)(=O)c2ccc3c(c2)C(=O)Nc2cc(Cl)ccc2O3)cc1 | -14% | -3%
CC(C)CCNc1nc(C(=O)Nc2ccc(Cn3cncn3)cc2)cs1 | ? | ?
CCOC(=O)c1cn(C)nc1S(=O)(=O)N1CCOCC1 | -9% | -8%
O=S(=O)(/C=C/CN1CCOCC1)c1ccc2ccccc2c1 | -23% | -17%
CCOC(=O)c1c(S(=O)(=O)N2CCCC(C(=O)NCc3ccc(Cl)cc3)C2)c(C)n(C)c1C (stereo unspecified) | -8% | -8%
Cc1ccc(Cn2c(C)c3cnn(CC(=O)NCc4ccccc4)c(=O)c3c2C)cc1 | 55%[activator] | -11%
CCOc1ccc(S(=O)(=O)NCc2ccccn2)cc1C | 60%[activator] | 198%[activator]
CC1=C(C(=O)OC(C)C)C(c2ccc(O)cc2)C2=C(CCCC2=O)N1 (stereo unspecified) | 2% | 0%
Cc1ccc(SCc2nc(-c3ccc(C(=O)NCC(C)c4ccccc4)cc3)oc2C)cc1 (stereo unspecified) | ? | ?

Next part
smiles | 2A firefly | 2A Renilla
COc1ccc(CN2COc3ccc4c(-c5ccc(OC)cc5)cc(=O)oc4c3C2)cc1 | 11% | 31%[activator]
CCOc1ccc(/C=C/C(=O)Nc2cccc3cccnc23)cc1OCC | 6% | -10%
CCCOc1ccc(Br)cc1/C=C(/C#N)C(=O)OC | 0% | 21%
Cn1nc(C(=O)OCC(=O)Nc2ccc(Cl)cc2Cl)c2ccccc2c1=O | 12% | -2%
CC1CN(C)CC(C)C1=O (stereo unspecified) | 0% | 9%
CN1C(=O)Cc2cc(-c3csc(Nc4ccccc4)n3)ccc21 | 146%[activator] | 5%
COc1cccc(NC(=O)CCCN(c2ccc(Cl)cc2)S(C)(=O)=O)c1 | 3% | 30%
O=C(O)c1cc(Cl)ccc1Br | 0% | 17%
Cc1ccc(SCc2cc(=O)oc3c(C)c(C)ccc23)cc1 | 109%[activator] | 4%
CC1=C(C(=O)OC(C)C)C(c2cccnc2)c2c(nc(SCC(C)C)[nH]c2=O)N1 (stereo unspecified) | 9% | 7%
Nc1nc(N2CCN(Cc3ccccc3Cl)CC2)c2[nH]cnc2n1 | 17% | -14%
Cc1ccc([N+](=O)[O-])cc1NS(=O)(=O)c1cccs1 | 14% | 27%
CC(C)c1nc(N2CCN(C(=O)C(=O)NCCc3ccccc3)CC2)c(C#N)c2c1CCCC2 | 2% | 105%[activator]
CC(=O)c1ccc(NC(=O)NCCNc2ccc(C#N)cn2)cc1 | 0% | ?
Cc1cc(Cl)ccc1NC(=O)COc1ncnc2ccc(Br)cc12 | -6% | -5%
Cn1cc(/C=C2/CC(=O)N(c3ccc(C(=O)O)cc3)C2=O)c2ccccc21 | ? | ?
Cc1cc(C)c2oc(C(=O)NCC(c3cccs3)N3CCOCC3)cc(=O)c2c1 (stereo unspecified) | 2% | 11%
CC(C)n1nc(C(=O)OCC(=O)Nc2cc(Cl)ccc2Cl)c2ccccc2c1=O | ? | -13%
Cn1ccnc1C(OC(=O)CC12CC3CC(CC(Br)(C3)C1)C2)C(F)(F)F (stereo unspecified) | 7% | -2%
Cc1ccnc(N/C=C(/Cl)C(=O)C(F)(F)F)c1 | 111%[activator] | 4%

Look-ups from the entries so far.
2A Renilla, Cc1ccc(SCc2cc(=O)oc3c(C)c(C)ccc23)cc1 → 4%
2A firefly, Cc1ccc([N+](=O)[O-])cc1NS(=O)(=O)c1cccs1 → 14%

(more compounds)
smiles | 2A firefly | 2A Renilla
CCN(CC(=O)Nc1ccccc1C(F)(F)F)C(=O)Cc1ccc2ccccc2c1 | -11% | -4%
COCC(C)NS(=O)(=O)c1c(C)c(C)c(C)c(C)c1C (stereo unspecified) | 5% | 231%[activator]
CCc1ccc(C(=O)C(C)OC(=O)c2ccc3c(c2)CCCC3)cc1 (stereo unspecified) | 57%[activator] | -10%
Cc1cccc(NC(=O)C2CCN(S(=O)(=O)c3ccc(F)cc3)CC2)c1C | -19% | 0%
CCCCN(CCCC)CCNC(=O)c1cn(CC)c2ccc(S(=O)(=O)N(C)C3CCCCC3)cc2c1=O | -14% | 0%
Cc1cc(OCC(=O)NC(C)C)c2c(C)cc(=O)oc2c1 | 16% | 2%
O=C(Nc1cccc(-c2nc3cccnc3s2)c1)c1cccc(Br)c1 | -2% | -4%
O=C(NC1CCCC1)C(Sc1nc2ccccc2o1)c1ccccc1 (stereo unspecified) | -7% | 0%
O=C(NCCc1ccc(Cl)cc1)c1nnc(Cc2ccc(Cl)cc2Cl)o1 | -10% | -3%
O=C(Nc1nccs1)C1=Cc2cc(Cl)ccc2OC=C1 | 0% | 8%
CCOc1cccc(NC(=O)C2CC(=O)N(CC)C(=Nc3ccc(F)cc3)S2)c1 (stereo unspecified) | -4% | 6%
COc1ccc(Oc2ccc(Oc3ccc(OC)cc3)cc2)cc1 | -2% | 5%
CC(C)c1noc(C(C)Sc2cc(C(N)=O)c3ccccc3n2)n1 (stereo unspecified) | 0% | 20%
Cc1cc(=O)n2[nH]c(NC(=O)c3cccc(Cl)c3)nc2n1 | 55%[activator] | 3%
CC(C)(C)c1ccc(C(=O)NNc2ncnc3c2cnn3-c2ccccc2)cc1 | 48%[activator] | -14%
O=C(OCC(=O)c1c[nH]c2ccccc12)c1cc(S(=O)(=O)N2CCOCC2)ccc1F | 1% | -2%
CCCCOc1ccc(/C=C/C(=O)c2ccc(OC)c(CSCC(=O)O)c2)cc1 | 0% | 8%
CC(C)Cn1c(-c2ccncc2)nc2c1c(=O)[nH]c(=O)n2CC(C)C | -4% | -6%
COc1ccc2c(-c3ccccc3)cc(SCC(=O)NCC(C)C)nc2c1 | -2% | -1%
CCC(=O)N1CCc2cc(S(=O)(=O)CCC(=O)NCc3cccc(OC)c3)ccc21 | 13% | 9%

Complete entries from above:
CCC(C)NC(=O)Cc1ccc2c(c1)CCCC2 (stereo unspecified) in the list: 2A firefly: 17%; 2A Renilla: 3%
Cc1cc(C)c2oc(C(=O)NCC(c3cccs3)N3CCOCC3)cc(=O)c2c1 (stereo unspecified) in the list: 2A firefly: 2%; 2A Renilla: 11%

More compounds
smiles | 2A firefly | 2A Renilla
O=C(N[C@@H](Cc1ccccc1)C(=O)Nc1cccc(N2CCCC2=O)c1)c1cccs1 | 178%[activator] | 100%[activator]
N#C/C(=C\c1ccc(F)cc1)S(=O)(=O)c1ccccc1 | 3% | 5%
Cc1nc2ccc(C(=O)OCc3ccccn3)cc2nc1C | 127%[activator] | -9%[1.06 µM]
Cc1ccc(CCNC(=O)CCn2c(=O)c3cccn3c3ccc(F)cc32)cc1 | -1% | 0%
O=C(CCCc1cccs1)N(Cc1cccnc1)C1CC1 | 11% | 6%
COc1ccc(NC(=O)/C=C/c2ccc3ccccc3n2)c(OC)c1 | 158%[activator] | -23%
COCCN(Cc1ccccc1)C(=O)c1cc(-c2ccc(OC)c(OC)c2)nc2ccccc12 | 40%[activator] | 115%[activator]
Cc1ccc(C2CC(c3ccc4c(c3)OCO4)=NN2C(=O)CCC(=O)O)cc1 (stereo unspecified) | 21% | -5%
CCC(=O)Nc1cccc(C(=O)OCc2cc(=O)n3nc(CC)sc3n2)c1 | 27% | -12%
COC(=O)c1ccc(C(=O)OC)c(NC(=O)NCCn2c(-c3ccccc3)nc3ccccc32)c1 | 17% | 14%
Cn1c(=O)c2c(SCC(=O)NCC3CCCO3)nc(-c3cccc(F)c3)nc2n(C)c1=O (stereo unspecified) | -6% | -9%
O=C(NC1CCCCC1)c1ccc2c(c1)sc1nc(-c3ccc(F)cc3)cn12 | 13% | -8%
CCOC(=O)c1ccc(N2C(=O)c3n[nH]c(-c4ccco4)c3C2c2ccc(C(=O)OC)cc2)cc1 (stereo unspecified) | ? | -21%

Reformatted: entries from further up
Cc1ccc(C2CC(c3ccc4c(c3)OCO4)=NN2C(=O)CCC(=O)O)cc1 (stereo unspecified)
  2A firefly: 21% | 2A Renilla: -5%

O=C(CSc1nnc(Cc2cc(=O)[nH]c(=O)[nH]2)n1-c1ccc(F)cc1)c1ccc(Cl)cc1
  2A firefly: -10% | 2A Renilla: -11%

A portion from further up, as a working copy:
smiles | 2A firefly | 2A Renilla
O=C(N[C@@H](Cc1ccccc1)C(=O)Nc1cccc(N2CCCC2=O)c1)c1cccs1 | 178%[activator] | 100%[activator]
N#C/C(=C\c1ccc(F)cc1)S(=O)(=O)c1ccccc1 | 3% | 5%
